# Mtb bLac sens: beta-lactam sensitization of Mtb H37Rv, H37Rv; M. tuberculosis H37Rv growth with meropenem, percent inhibition; hits of this screen are not shown here; inhibition, % at 25 µM; hit rate 0.27% among 330,000; AID 434955, 2010;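 active = about 74% or more and at least 40 points above the plate without the antibiotic, then above 30% in a dose series; inconclusive = first-round hits that could not be retested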;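 note: growth measured after seven days incubation then overnight dye step; 0% = bacteria only wells and 100% = bacteria with antibiotic; twin plates without the antibiotic show which effects depend on it; some results filed as inactive read as strong as hits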
# YopH PTP inh: YopH tyrosine phosphatase inhibitors, primary screen, biochemical, fluorescence Ex485/Em525; YopH tyrosine phosphatase [Yersinia enterocolitica]; inhibition, %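 (about 10 µM by stock and volumes)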; hit rate 0.16% among 140,000; AID 898, 2007;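 active = inhibition of 50% or more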;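 note: controls were vehicle for no effect and minimum signal wells for full effect; inactives centre near -20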
# RecA intein inh: Mtb RecA intein splicing inhibitors, primary screen, biochemical, fluorescence, HTS. Protein RecA (Mycobacterium tuberculosis (strain ATCC 25618 / H37Rv)), P9WHJ3. cell-free RecA intein splicing. inhibition, %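 (about 9 µM by stock and volumes)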. AID 2221, 2009. hit rate 0.75% among 290,000; in the data active = inhibition above about 30%; inconclusive = no clear call, values can overlap the other calls;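 note: 0% = vehicle wells and 100% = reference inhibitor control wells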
# Target sequence (P9WHJ3 whole entry, looked up): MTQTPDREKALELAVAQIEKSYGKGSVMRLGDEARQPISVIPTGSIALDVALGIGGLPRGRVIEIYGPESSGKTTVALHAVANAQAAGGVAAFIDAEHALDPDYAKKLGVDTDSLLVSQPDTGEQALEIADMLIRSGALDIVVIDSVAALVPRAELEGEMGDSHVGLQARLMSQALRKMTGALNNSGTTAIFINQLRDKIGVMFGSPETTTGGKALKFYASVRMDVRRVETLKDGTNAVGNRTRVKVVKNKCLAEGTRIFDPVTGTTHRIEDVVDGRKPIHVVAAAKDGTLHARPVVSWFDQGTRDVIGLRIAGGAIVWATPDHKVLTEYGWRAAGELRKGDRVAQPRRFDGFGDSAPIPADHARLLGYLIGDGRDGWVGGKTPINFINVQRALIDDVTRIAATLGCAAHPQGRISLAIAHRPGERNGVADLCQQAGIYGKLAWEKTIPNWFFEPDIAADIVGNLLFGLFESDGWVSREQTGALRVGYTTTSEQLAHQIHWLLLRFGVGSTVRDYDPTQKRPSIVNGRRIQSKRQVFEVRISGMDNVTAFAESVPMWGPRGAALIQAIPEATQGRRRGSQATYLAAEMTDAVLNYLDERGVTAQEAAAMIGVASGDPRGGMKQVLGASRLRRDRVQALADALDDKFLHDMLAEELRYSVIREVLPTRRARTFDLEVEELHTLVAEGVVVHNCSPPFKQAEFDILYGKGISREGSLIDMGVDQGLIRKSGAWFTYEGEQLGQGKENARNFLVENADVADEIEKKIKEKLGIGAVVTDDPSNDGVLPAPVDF
# Mtb H37Rv: M. tuberculosis H37Rv growth inhibitors, H37Rv strain (AID 1626); hit rate 0.95% among 220,000; one-dose inhibition, % at 10 µM; IC50 in µM for titrated hits; M. tuberculosis H37Rv growth inhibition; higher % means a stronger effect;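 active = confirmed in a dose series; inconclusive = inhibition above 80% but not taken into the dose series; inactive = below 80% or under 30% at every dose of the series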;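 note: bacteria incubated seven days before Alamar blue readout; 0% = bacteria only wells and 100% = bacteria with antibiotic wells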
# Arbovirus anti: antivirals against arbovirus infection, primary screen, cell-based, full library, 10K replicate subset; arbovirus infection cell-based antiviral screen; inhibition, % at 10 µM; hit rate 0.37% among 200,000; AID 1251, 2008;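 active = inhibition from about 30%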;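 note: bluetongue infection of BSR cells; cell survival read as ATP light after 72 h; 0% = infected wells without compound and 100% = uninfected wells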
# Arbovirus anti repeat: further read-out of Arbovirus anti, marked with its call; inhibition, %; measured here: 10K subset replicate screen; many hits read low in the repeat;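 first of two repeat runs on a subset; 0% = infected and 100% = uninfected wells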
# Starred values were filed as active, the others as inactive; u = inconclusive; x = not tested or not shown. These rows are one share of the data; the hit share may differ from the screen's.
SMILES,Mtb bLac sens,YopH PTP inh,RecA intein inh,Mtb H37Rv,Arbovirus anti,others
CC(C)CC(COCc1ccc(C(F)(F)F)cc1)N1CCN(C(=O)c2ccc(C(F)(F)F)cc2)CCC1=O (centres undefined),3,1,10.0,-1%,-36,
O=C(COc1cccnc1[N+](=O)[O-])NCCc1ccc(F)cc1,-3,x,-1.4,1%,7,
Cc1ccc2c(c1)C(O)(CC(=O)/C=C/C=C/c1ccccc1)C(=O)N2 (centres undefined),-5,-21,3.4,-1%,-10,
O=[N+]([O-])c1ccc(-c2cn3ccccc3n2)cc1,1,x,4.6,x,x,
OC(COCCOc1ccc(Br)cc1)CN1CCCCC1 (centres undefined),-1,-12,1.3,0%,-19,
O=C(NCCc1ccccc1)c1ccccc1NC(=O)C1CCCO1 (centres undefined),1,x,0.5,16%,-2,
O=C(CCN1CCN(c2ccccc2)CC1)Nc1ccc(Cl)cc1,-7,-26,0.2,3%,-6,
O=C(c1cc2ccccc2oc1=O)N(Cc1cccc(Br)c1)C1CCS(=O)(=O)C1 (centres undefined),3,x,-0.4,-19%,x,
O=C(C1CCC(CNS(=O)(=O)c2cccc3cccnc23)CC1)N1CCCC1 (centres undefined),-1,2,0.7,-21%,13,
CCOC(=O)C(CC)(CCC(=O)O)c1csc(N)n1 (centres undefined),1,-17,x,-5%,10,Arbovirus anti repeat=11
Nc1c(Cl)cc(Cl)cc1C(=O)OCC(=O)NC1CC1,0,-6,-2.1,-8%,2,
CN(CC(=O)Nc1ccccc1Cl)C(=O)c1cccc(S(=O)(=O)N2CCN(c3ccc(F)cc3)CC2)c1,-6,x,3.3,x,x,
C=CCS/C(=N\n1cnc2ccccc2c1=O)N1CCCCC1,-3,-39,0.3,-1%,5,
O=C(NCC(=O)N1CCN(c2ccccc2F)CC1)c1ccc(Br)o1,-9,x,-1.0,x,x,
COC1=Cc2c(ccc3ccc(=O)oc23)OC1(C)C,-1,-23,1.7,0%,-6,
COc1ccc2oc(C(=O)OCC(=O)N(Cc3ccccc3)C(C)(C)C)c(C)c2c1,-9,x,3.5,x,x,
COc1ccc(-n2ccc(=O)c(C(=O)O)n2)c(OC)c1,-8,x,-0.5,x,x,
CC(=O)Nc1ccc(S(=O)(=O)NCC2CCC(C(=O)NCCC(C)C)CC2)cc1 (centres undefined),-10,-9,-3.6,-13%,3,
O=C(Cc1ccccc1)NCC(=O)OCc1cccc([N+](=O)[O-])c1,u,x,0.3,x,x,
Cc1nn(C(=O)c2ccco2)c(C)c1Sc1ccccc1,56,-45,3.0,8%,0,
Cc1ccc(C(=O)C2CCN(CC(=O)NC3CCCC3)CC2)cc1,1,x,8.5,x,x,
CCOc1ccc(N=C2SC(C(=O)O)CC(=O)N2C)cc1 (centres undefined),0,-25,5.7,-3%,-1,
CCOc1ccc(NS(=O)(=O)c2csc(C(N)=O)c2)cc1,6,x,1.0,x,x,
CC1(c2nnc(Cc3ccccc3)o2)CC(c2ccccc2F)=NO1 (centres undefined),-2,x,0.9,x,x,
O=C(Oc1ccc(/C=N/NC(=O)c2ccccn2)cc1)c1cccc(Br)c1,93,x,-0.2,x,x,
CC(=O)c1coc2ccc(OCCN3CCCCC3)cc12,1,-28,-0.9,2%,-1,Arbovirus anti repeat=-1
COc1ccc(OCCNC(=O)c2ccccc2OCC(=O)N2CCCCC2)cc1,-5,-37,0.1,-7%,-2,
Cc1cc2cc(C)c3nnc(SCC(=O)N4CCCc5ccccc54)n3c2cc1C,-3,-24,0.5,x,-4,
CC(=O)c1ccc(S(=O)(=O)N2CCN(CC#N)CC2)cc1,1,x,0.4,-3%,x,
O=C(NCCCc1ccccc1)c1c(O)nc2sccn2c1=O,74,x,3.4,x,x,
N#Cc1ccc(C2=NC(C(F)(F)F)(C(F)(F)F)c3c(n(Cc4ccco4)c(=O)[nH]c3=O)N2)cc1,-8,-11,-2.5,-24%,11,
Cc1ccc(C(=O)/C=C/c2cc(Br)cc(Br)c2O)o1,u,x,1.5,x,x,
CC(C)NC(=O)C(=O)NCCCN1CCOCC1,-2,x,0.2,3%,4,
CCC(=NCCc1ccccc1)C1=C(O)CCC1=O,-4,-10,-0.9,-8%,5,Arbovirus anti repeat=-2
CCOc1ccc(NC(=O)CN(C)C(=O)CSCc2cccc(C)c2)cc1OCC,2,x,-3.6,x,x,
Cc1c(NC(=O)CCC(=O)N2CCOCC2)c(=O)n(-c2ccccc2)n1C,-9,-16,-0.9,-6%,-3,
COc1ccc(N2Cc3ccccc3C2=NC(=O)c2cncc(Br)c2)cc1,88,x,4.6,89%,-7,
COc1ccc(N2CCN(C(=O)CSc3nc4cc(OC)c(OC)cc4cc3C#N)CC2)cc1,-5,x,-4.7,-3%,x,
Cc1cc(N2CCOCC2)nc2ccc(NC(=O)CCC(=O)N3CCN(c4ccccc4)CC3)cc12,1,x,-3.8,x,x,
Cc1nn(Cc2ccccc2Cl)c(C)c1C(=O)NCC(c1cccs1)N1CCOCC1 (centres undefined),-7,x,-6.4,x,x,
COc1ccccc1C(=O)Nc1cccc(C(=O)c2ccccc2)c1,-20,x,10.0,x,x,
O=C(Nc1ccccn1)C1CCN(S(=O)(=O)c2cccs2)CC1,4,-3,-1.1,-5%,-1,
Nn1c(SCC(=O)Nc2ccc(S(N)(=O)=O)cc2)nnc1C(F)(F)F,-7,x,1.4,-7%,x,
Cc1ccc2nc(NC(=O)CCn3cccc3)sc2c1,4,x,-3.1,8%,-8,
CC(=O)Nc1ccc(S(=O)(=O)N(C)CC(=O)OCCOc2cccc(C)c2)cc1,-4,x,0.7,x,x,
O=C(CCOc1ccccc1)Nc1ccccc1F,-3,x,-0.5,x,x,
O=C(N/N=C/C(Cl)=C/c1ccc([N+](=O)[O-])cc1)C(=O)Nc1ccccc1C(=O)O,5,x,-0.2,-3%,x,
CC(=O)c1ccc(NC(=O)C2CCCN2S(=O)(=O)c2cccc3cccnc23)cc1 (centres undefined),4,-9,x,-11%,2,Arbovirus anti repeat=0
COc1ccc(CC(=O)NCC(=O)Nc2ccccc2Br)cc1,1,x,0.5,x,x,
O=C(Nc1cccc2ncccc12)c1cccc(F)c1,1,-21,-0.6,-4%,-2,
NS(=O)(=O)c1cc(C(=O)OCC(=O)NC2CC2)ccc1Cl,2,-13,-0.9,-9%,-5,
CS/C(=C(/C#N)S(=O)(=O)c1ccc(Cl)cc1)N1CCOCC1,4,x,1.1,-2%,x,
COCCn1nnnc1C(c1cccc(OC)c1OC)N1CCN(C(=O)c2ccco2)CC1 (centres undefined),-8,x,1.9,x,x,
CC(C)Cn1c(=O)c(C(=O)Nc2cnccn2)c(O)c2ccccc21,-6,-29,0.8,-13%,-15,
O=C(CCOc1ccccc1)Nc1ccnn1C1CCN(Cc2ccc(F)cc2)CC1,-17,x,-0.3,x,x,
Cc1[nH]c2ccccc2c1C(=O)CN1C(=O)NC2(CC(C)CC(C)(C)C2)C1=O (centres undefined),3,-33,-0.8,9%,-15,
Cc1cc(C(=O)c2cnc(/N=C/N(C)C)s2)c(F)cc1Cl,11,x,-1.1,4%,-20,
CC(C)Sc1nc(N2CCOCC2)c2c3c(sc2n1)COC(C)(C)C3,8,-36,-0.5,-7%,4,
Cc1cc(C(=O)CSc2nnnn2C)c(C)n1C1CC1,4,x,2.1,-4%,8,
CCOc1ccc(-c2nc3scc(-c4cccs4)c3c(=O)[nH]2)cc1,4,x,-1.2,4%,-3,

# More structures
SMILES,Mtb bLac sens,YopH PTP inh,RecA intein inh,Mtb H37Rv,Arbovirus anti,others
CCC(Sc1nc(=O)cc(N)n1CCc1ccccc1)C(=O)Nc1ccccc1C#N (centres undefined),0,-14,0.7,-1%,-6,
O=C(N/N=C\c1cc([N+](=O)[O-])ccc1N1CCCC1)c1ccccn1,92,x,-19,9%,7,
Cc1nn(C)c(Cl)c1C(=O)NCC(=O)NCc1ccccc1,-6,x,x,-22%,-1,
Cc1cccnc1NC(=O)c1cccc(S(=O)(=O)N2CCN(c3ccccc3)CC2)c1,-5,x,2.2,x,x,
NS(=O)(=O)c1ccc(NC(=O)Cn2nc(C(=O)O)c3ccccc3c2=O)cc1,9,x,-0.8,x,x,
COc1ccc(OC)c(S(=O)(=O)Nc2ccc(O)c3ccccc23)c1,15,-2,x,-2%,-37,
COC(=O)c1cc(O)cc(OC)c1C(=O)c1c(O)cc(C)cc1O,5,x,-5.7,-5%,x,
O=S(=O)(NCc1cccnc1)c1cccc2nsnc12,0,-29,-1.0,-4%,0,
CN(C)c1ccc(C(=O)NCC(c2cccs2)N2CCOCC2)cc1[N+](=O)[O-] (centres undefined),3,x,-4.4,x,x,
O=C(CSc1nc2ccccc2o1)Nc1ccccc1,6,12,-0.9,0%,-5,
O=C(CCN1C(=O)S/C(=C/c2ccccc2)C1=O)Nc1ccc(C(=O)O)c(O)c1,95,x,5.0,x,x,
CC1(C)CC(=O)C=C(NCc2ccccc2)C1,-1,-33,-2.8,-7%,2,
CC1CCN(S(=O)(=O)c2cccc(C(=O)Nc3ccccn3)c2)CC1,-8,-33,-5.6,-3%,1,Arbovirus anti repeat=2
CC1C(=O)O[C@@H]2C[C@@H](C)[C@@H]3CCC(=O)[C@@]3(C)[C@@H](O)[C@H]12 (some centres undefined),-10,x,1.8,-11%,x,
COC(=O)NC(NC(=S)Nc1ccccc1OC)C(Cl)(Cl)Cl (centres undefined),-2,5,5.4,0%,4,

# Among those listed so far, five contain a cyano group:
SMILES,Mtb bLac sens,YopH PTP inh,RecA intein inh,Mtb H37Rv,Arbovirus anti,others
CC(=O)c1ccc(S(=O)(=O)N2CCN(CC#N)CC2)cc1,1,x,0.4,-3%,x,
N#Cc1ccc(C2=NC(C(F)(F)F)(C(F)(F)F)c3c(n(Cc4ccco4)c(=O)[nH]c3=O)N2)cc1,-8,-11,-2.5,-24%,11,
COc1ccc(N2CCN(C(=O)CSc3nc4cc(OC)c(OC)cc4cc3C#N)CC2)cc1,-5,x,-4.7,-3%,x,
CS/C(=C(/C#N)S(=O)(=O)c1ccc(Cl)cc1)N1CCOCC1,4,x,1.1,-2%,x,
CCC(Sc1nc(=O)cc(N)n1CCc1ccccc1)C(=O)Nc1ccccc1C#N (centres undefined),0,-14,0.7,-1%,-6,

# (further entries)
SMILES,Mtb bLac sens,YopH PTP inh,RecA intein inh,Mtb H37Rv,Arbovirus anti,others
CC(c1ccccc1)C1C(C#N)=C(N)SC(N)=C1C#N (centres undefined),-13,-18,1.1,1%,-1,
Cc1cccc(N2CC(C(=O)O)CC2=O)c1 (centres undefined),3,12,-0.7,-6%,-2,
O=C(CN1CCCCCCC1)NC(=O)NC1CCCCC1,-1,x,2.5,2%,1,
CCOc1ccccc1NC(=O)NCc1ccccn1,-7,x,1.6,x,x,
COc1ccc(S(=O)(=O)N2CCC(O)(c3ccc(Cl)cc3)CC2)cc1OC,4,x,0.7,-8%,x,
Cc1ccc2nc(-c3ccc(NC(=O)CSCC(=O)O)cc3)sc2c1,6,x,1.4,6%,x,
COc1cc(/C=N/NC(=O)c2cc(-c3cccs3)nc3ccccc23)ccc1O,-3,x,0.8,-3%,x,
CC(C)(C)Nc1cccccc1=O,0,-6,-3.1,2%,-6,
CN(C)S(=O)(=O)c1cccc(-c2nnc(SCCNCCO)n2-c2ccc(F)cc2)c1,8,x,1.0,8%,1,
CCOC(=O)N1CCN(C(=O)CSc2nc(C)nc3c2c(=O)n(C)c(=O)n3C)CC1,5,x,-0.9,-8%,-1,
O=C(c1ccc(COc2ccccc2Br)o1)N1N=C(C(F)F)CC1(O)C(F)F (centres undefined),-2,-6,-2.7,0%,2,
Cn1c(SCc2ccccc2)nnc1-c1cccs1,2,-35,1.0,-16%,1,
Cc1ccnc(NC(=O)c2cccc(OC(F)F)c2)n1,-1,x,1.7,x,x,
CCN(C#N)c1nc(NC(C)C)nc(NC(C)C)n1,5,-14,0.2,5%,-3,
COc1ccccc1N1CCN(CCC(=O)Nc2ccc3c(c2)OCO3)CC1,0,15,x,-9%,-9,
CCN(CC)C(=O)c1cc2cc([N+](=O)[O-])ccc2s1,-6,-30,-1.4,10%,7,
O=C(NC1CCCCC1)C(c1cccs1)N(CCCN1CCOCC1)C(=O)c1ccc(-c2ccccc2)[nH]1 (centres undefined),7,x,5.6,1%,-27,
Cc1cc(C)cc(C(=O)N2CCC(CCC(=O)NC3CC3)CC2)c1,u,x,0.1,x,x,
O=C(CCN1C(=O)S/C(=C\c2ccccc2)C1=O)NC1CCS(=O)(=O)C1 (centres undefined),0,x,-0.5,x,x,
CN1CCOCCOCCOCCN(C)C1=S,3,x,x,-9%,8,

# Source: PubChem
